Screens (PubChem BioAssay)
STK33 kinase inh: inhibitors of human STK33 kinase; 320,000 compounds, 0.073% hits; purified STK33, MBP phosphorylation, ADP-Glo luminescence; AID 2661; inhibition, % at 10 µM; Q9BYT3;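 active = inhibition at or above 25%, using the most active replicate where run in duplicate; inactive = inhibition below 25%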
Target sequence (Q9BYT3 whole entry, looked up): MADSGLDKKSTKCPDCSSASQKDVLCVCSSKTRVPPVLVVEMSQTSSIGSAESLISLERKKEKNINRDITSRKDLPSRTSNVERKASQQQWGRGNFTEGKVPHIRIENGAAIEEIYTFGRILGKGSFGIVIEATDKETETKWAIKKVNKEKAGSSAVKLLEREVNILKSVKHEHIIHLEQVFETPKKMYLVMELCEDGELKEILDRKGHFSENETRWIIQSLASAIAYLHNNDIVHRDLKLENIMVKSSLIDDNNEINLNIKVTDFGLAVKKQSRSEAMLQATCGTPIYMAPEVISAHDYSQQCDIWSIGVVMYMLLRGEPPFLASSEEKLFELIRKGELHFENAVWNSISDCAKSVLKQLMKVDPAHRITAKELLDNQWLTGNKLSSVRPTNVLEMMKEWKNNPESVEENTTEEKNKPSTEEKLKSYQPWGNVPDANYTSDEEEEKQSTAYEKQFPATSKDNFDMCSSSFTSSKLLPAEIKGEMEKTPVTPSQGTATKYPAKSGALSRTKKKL
* hit, by the source's call; & = joins results of further samples. Some of the compounds tested; most or all hits stand in other tables.

SMILES	STK33 kinase inh
CCC(c1nnnn1CS(=O)(=O)c1ccc(C)cc1)N1CCN(c2nc3ccccc3s2)CC1 (configuration not stated)	-1.6
CCC1Oc2ccc(C)cc2N(CC(=O)NCc2ccco2)C1=O (configuration not stated)	-2.0
CCCc1ncc(CN2CCC(C(=O)Nc3cccc(-c4cscn4)c3)CC2)cn1	0.2
Cc1ccc2cccc(OCC(=O)NCc3ccco3)c2n1	-1.3
O=C(Nc1ccc(N2CCCCC2)c(Cl)c1)c1cccnc1	-0.4
Cc1cc(N2CCOCC2)nc(SCC(=O)c2ccccc2)n1	-0.8
COc1ccc(OCC(O)CN2CCN(c3ccccc3)CC2)cc1 (configuration not stated)	1.1
Cc1ccc(S(=O)(=O)CCC(=O)OCC(=O)N2c3ccccc3CC2C)cc1 (configuration not stated)	-0.4
CCn1c(SCC(=O)Nc2ccc(S(=O)(=O)Nc3onc(C)c3C)cc2)nnc1-c1ccccc1	0.4
COC(=O)c1[nH]c2cccc(C)c2c1NC(=O)CN1CCN(c2ccccc2OC)CC1	-0.6
O=C(c1cc(-c2ccccc2Cl)nc2ccccc12)N1CCOCC1	0.9
c1cc2c(cc1C1CCCCC1)c1c3n2CCN=C3CCC1	0.5
COc1ccc(-c2csc(N(CCc3ccccc3)C(=O)COc3ccccc3)n2)cc1	2.0
Cc1ccccc1CNC(=O)CC1C(=O)NCCN1Cc1c(F)cccc1Cl (configuration not stated)	-0.4
CCOC(=O)Cn1nnnc1CN(Cc1cccs1)Cc1cc2cc(C)ccc2[nH]c1=O	0.0
CC(C)(C)c1ccc(NC(=O)COC(=O)C2(C)CC2(Cl)Cl)cc1 (configuration not stated)	-2.1
COc1ccc(OC)c(N(CC(=O)NCc2ccncc2)S(C)(=O)=O)c1	-3.4
COC(=O)c1ccc(CSc2ccc3nnc(-c4ccc(F)cc4)n3n2)o1	-0.2
C=CCOC(=O)CCC(=O)Nc1cc(OC)nc(OC)n1	-0.8
CCOc1ccc(NS(=O)(=O)c2ccc(C(=O)N3CCC3)cc2)cc1	-0.3
CC(C)C(NS(=O)(=O)c1cccs1)C(=O)NCc1ccccc1Cl (configuration not stated)	-0.7
COc1ccccc1N1CC(O)=C(c2nc3ccccc3s2)C1=N	0.1
COc1ccc(CNC(=O)COc2cc(O)c3c(c2)OC(C)(C)CC3=O)c(OC)c1	-0.6
Nc1sc(-c2ccccc2)cc1-c1n[nH]c(=S)n1C1CCCCC1	-0.1
CN1CCN(C(=O)CCC(=O)NCc2ccc(F)cc2)CC1	-0.3
CCCS(=O)(=O)N1CCCC(C(=O)Oc2ccccc2Cl)C1 (configuration not stated)	1.7
Cc1cccc(N=C2C(=O)Nc3c(Cl)cccc32)c1	-1.0
O=c1cc(CSc2nnc(C3CC3)n2Cc2ccccc2)nc2sccn12	-1.5
CC(C)C(NS(=O)(=O)c1cccc2nsnc12)C(=O)NC1CCCCC1 (configuration not stated)	-2.2
Cc1cccc(NC(=O)c2cc(S(=O)(=O)N3CCCC3)cn2C)c1	-0.8
Cc1nc(Nc2cnc(/C=C/c3cc(C(=O)Nc4cccc(C(F)(F)F)c4)ccc3C)cn2)cc(N2CCNCC2)n1	8.3
C#CC(C)(CC)NC(=O)Cn1nnc(-c2cccc(C(F)(F)F)c2)n1 (configuration not stated)	0.6
COc1ccc(/C=C/C(=O)Nc2ccc3nc4n(c(=O)c3c2)CCCC4)cc1	0.2
O=C(c1ccc(CS(=O)(=O)Cc2ccc(Cl)cc2)o1)N1CCCC1	-0.6
Cc1ccc2[nH]cc(/C=C/c3cc[n+](C)cc3)c2c1	0.8
COc1cccc(N2CCN(C(=O)CCCCCn3c(=S)[nH]c4cc5c(cc4c3=O)OCO5)CC2)c1	-0.3
Cc1ccc(-c2[nH]c(-c3ccc(Cl)cc3)nc2SCC(=O)NCC2CCCO2)cc1 (configuration not stated)	-0.8
CCCn1c(CNc2ccc(Br)cc2)nc2ccccc21	-1.0
Cc1sc2ncnc(NCC(O)c3ccc([N+](=O)[O-])cc3)c2c1C (configuration not stated)	-0.7
COc1cc(OC)cc(C(=O)NCC(=O)N2CCC(C)CC2)c1	-1.7
COc1ccc(Oc2nnc(C)c3ccccc23)cc1	-1.2
CC(Oc1ccc(F)cc1)C(=O)Nc1cccc(-c2nn[nH]n2)c1 (configuration not stated)	2.3
CC(=O)N(C)c1ccc(NC(=O)Nc2ccc(C)cc2)cc1	0.9
O=C(Nc1ccccc1Cl)c1cccs1	-1.9
CC(=O)c1ccc(-c2nc3c4ccccc4ccn3c2C(C)=O)o1	-1.0
Cc1ccccc1NC(=O)C1CCCN(S(=O)(=O)c2ccc3c(c2)C(C)(C)C(=O)N3C)C1 (configuration not stated)	-0.7
O=C(CC(=O)Nc1cccc(Cl)c1Cl)Nc1cccc(Cl)c1Cl	-1.5
CCOC(=O)Nc1ccc(C(N)=O)cc1	0.3
Cc1onc(-c2c(F)cccc2Cl)c1C(=O)N1C=CC(C(F)(F)Cl)=NCC1	-1.7
COc1ccc(C2(CNC(=O)c3ccccc3)CCCC2)cc1OC	-1.5
O=C(CSc1nnc2c(Cl)cc(Cl)cn12)N1CCN(S(=O)(=O)c2ccccc2)CC1	-2.4
Cn1c2c(c(=O)n(C)c1=O)C1c3cc(Cl)ccc3OCC1CO2 (configuration not stated)	-0.5
Cc1cccc(NC(=S)NCc2cccs2)c1	-0.1
Cc1cc(NS(=O)(=O)c2ccc(Nc3nc(-c4sc(NC(=O)c5ccccc5)nc4C)cs3)cc2)no1	12.1
Cc1ccc2[nH]c(=O)c3cc(C(=O)N4CCN(C(=O)c5ccco5)CC4)sc3c2c1	2.9
COc1ccc(-c2nnc(NC(=O)c3ccc(S(=O)(=O)N(C)CC4CCCO4)cc3)o2)c(OC)c1 (configuration not stated)	-1.7
O=C(O)C1Cc2[nH]cnc2C(c2ccccc2O)N1 (configuration not stated)	0.8
Cc1ccc2nc3ccc(N4CCN(C)CC4)nn3c(=O)c2c1	0.2
O=C1CCCC2=C1C(c1ccc(Br)cc1)c1c([nH]c(=S)[nH]c1=O)N2 (configuration not stated)	0.2
Cc1ccc(Cl)cc1NC(=O)COC(=O)C12CC3CC(CC(C3)C1)C2	-4.7&-0.5

Next part.
SMILES	STK33 kinase inh
CC1CCN(C(=O)CSc2nnc(-c3cccnc3)o2)CC1	-0.4
CC(C)NC(=O)c1cc(-c2cccs2)nc2ccccc12	-1.3
O=C(CC1(O)C(=O)N(Cc2ccc3c(c2)OCO3)c2ccccc21)c1ccccc1 (configuration not stated)	-1.0
Cc1ccc(NC2CC(=O)N(c3ccc(C)cc3)C2=O)cc1 (configuration not stated)	-0.2
O=C(CN(C(=O)c1ccccc1)N1C(=O)CCC1=O)c1cccs1	-1.1
O=c1n(S(=O)(=O)c2cccc3cccnc23)c2ccccc2n1S(=O)(=O)c1cccc2cccnc12	-0.5
COC(=O)c1cc(S(=O)(=O)NCc2cccs2)c[nH]1	-1.0
Cc1ccc(S(=O)(=O)NC2=NCN(C3CCCCC3)CN2)cc1	1.6
Cc1ccc(NC(=O)NNC(=O)c2cc3ccccc3cc2O)c(C)c1	-1.2
O=c1c(-c2ccccc2)c(O)c2cccc3c2n1CCC3	0.6
CCOc1ccc(OCc2cccc(C(=O)O)c2)cc1	-1.0
O=C(N/N=C/c1cccs1)c1cccc(NC(=O)c2ccccc2Cl)c1	0.3
CCN1CCCC1CNC(=O)c1cn(CC)c2ccc(S(=O)(=O)N3CCCCCC3)cc2c1=O (configuration not stated)	-3.5
Cc1cc(C)c2c(c1)NC(=O)C2(O)CC(=O)c1cccs1 (configuration not stated)	0.4
O=C(NCCS(=O)(=O)N1CCN(c2ccc(F)cc2)CC1)C1CC(=O)N(c2ccccc2)C1 (configuration not stated)	0.1
Clc1ccc(CN(Cc2ccc(Cl)cc2)c2nn[nH]n2)cc1	-0.7
CCOc1ccc(C(C)(C)C)cc1S(=O)(=O)N1CC(C)OC(C)C1 (configuration not stated)	-1.6
CSc1ccc(S(=O)(=O)Nc2ccc3c4c(cccc24)CC3)cc1	-1.8
Cc1cc(C)c2nc(-c3ccccn3)cc(C(=O)n3cccn3)c2c1	-0.1
Cc1cc(NC(=O)c2ccccc2Cl)c(C(C)C)cc1O	-0.1
CCOC(=O)N1CCN(C(=O)c2cccn3c(=O)c4sccc4nc23)CC1	0.9
COc1ccc(NC(=O)CN2CCN(c3ccccc3C)CC2)cc1	-1.2
OCCC1CN(Cc2cn[nH]c2C2CCCCC2)CCN1C1CCCCC1 (configuration not stated)	0.0
Cn1nnc2cc(NC(=O)Nc3cccc(Cl)c3)ccc21	0.2
CC(=O)Oc1ccc2ccc(=O)oc2c1	0.6
CCOc1ccc(S(=O)(=O)Nc2ccc(C(=O)NCC(c3ccco3)N3CCCCC3)cc2)cc1 (configuration not stated)	-1.6
Cc1ccc(S(=O)(=O)Nc2ccc3c4c(cccc24)CC3)c(C)c1	-0.2
Cc1cccc(OCCC(=O)OCC(=O)N2CCc3ccccc32)c1	-0.3
Cc1cc([N+](=O)[O-])nn1CC(=O)N1CCOCC1	-2.0
O=C(C(NS(=O)(=O)c1cccc2nsnc12)c1ccccc1)N1CCN(c2ccccc2)CC1 (configuration not stated)	-1.5
Cc1ccc(C(=O)N[C@@H](Cc2ccccc2)C(=O)N2CCC3(CC2)NCCc2[nH]cnc23)cc1C	0.2
CN(C1CCCCC1)S(=O)(=O)c1ccc(S(=O)(=O)N(CC(=O)Nc2ccccc2)C2CC2)cc1	-1.4
C=CCn1c(O)c(C(CC)=Nc2ccccc2NC(=O)CC)c(=O)[nH]c1=O	0.9
O=c1c2ccccc2nc(-c2ccco2)n1CCCn1ccnc1	-0.4
CCOc1ccc(C2NC(=O)c3ccccc3O2)cc1OC (configuration not stated)	1.2
CNC(=O)COc1ccc2oc3c(c2c1)CCCC3	0.1
COc1ccc(Cl)cc1NC(=S)NNC(=O)c1cccs1	-1.0
Cc1ccccc1N(C(=O)Cc1cccs1)C(C(=O)NC1CCCCC1)c1cn(C)nc1C (configuration not stated)	-0.7
Cc1sc2nc(C(C)(C)C)oc(=O)c2c1C	-0.4
Cc1ccc(NC(=S)NNc2ncc(C(F)(F)F)cc2Cl)cc1	-0.9
O=C(O)c1ccc(-n2nnnc2Oc2ccccc2C(=O)N2CCOCC2)cc1	1.0
C/C(=N\NC(=O)C1CCCN(S(=O)(=O)c2ccccc2)C1)c1cccnc1 (configuration not stated)	0.9
Cc1cc(C(=O)Nc2cc(Br)ccc2O)on1	-0.6
O=C(NNc1c(Cl)cc(Cl)cc1Cl)C1CCC1	-0.8
COc1ccc(C(=O)Nc2ccc(F)cc2F)cc1OC	-5.2
COc1ccc(-n2ccnc(SCC(=O)NC3CCCC3)c2=O)cc1	-1.8
CCOC(=O)CSc1cc(C(F)(F)F)nc(-c2ccccn2)n1	-1.1
COc1ccc2nc(SCC(C)=O)c(C#N)cc2c1	1.2
COC(=O)c1sccc1NC(=O)CSCCc1ccccn1	0.0
C/C(Cc1ccccc1)=N\NC(=O)CNC(=O)Cc1ccccc1	-0.1
COc1ccc2c(c1)CCC(C)N2S(=O)(=O)c1ccc(C2CNC(=O)C2)cc1 (configuration not stated)	0.6
N/C(COc1ccc(Cl)cc1)=N\NS(=O)(=O)c1ccccc1	-0.7
COC(=O)CCC(=O)OC1(C)C(=O)C2=CN(c3ccc(OC)cc3)C(c3ccc(OC)cc3)=CC2=C(Br)C1=O (configuration not stated)	1.3
COc1cc2cc(C(c3nnnn3Cc3ccc(F)cc3)N3CCCCCC3)c(=O)[nH]c2cc1OC (configuration not stated)	-0.8
Cn1cnnc1SCCNS(=O)(=O)c1cccc([N+](=O)[O-])c1	-0.9
CCCCN(C(=O)c1ccc2c(c1)OCO2)C1CCS(=O)(=O)C1 (configuration not stated)	-0.5
O=C(Nc1ccccc1C(F)(F)F)c1ncn[nH]1	-2.3
CCCC(=O)Nc1cccc(NC(=O)c2ccc(C)c([N+](=O)[O-])c2)c1	-1.3
Cc1ccc(S(=O)(=O)Nc2ccc3c(c2)c2c(n3S(=O)(=O)c3ccc(C)cc3)CCCC2=O)cc1	-0.4
Cc1ccc(Cl)cc1NC(=O)N[C@@H](C)C(=O)O	-0.5
CNC(=S)N(CCc1c(C)[nH]c2ccc(F)cc12)Cc1ccco1	0.2
CCOC(=O)CC1COCCN1Cc1cn[nH]c1-c1cc(OC)c(OC)c(OC)c1 (configuration not stated)	-0.1
COc1ccccc1-c1nnc(SC(C)C(=O)N2CCOCC2)o1 (configuration not stated)	0.9
